RE007 growth inh = less growth of the S. pombe RE007 Vpr strain; S. pombe RE007 Vpr strain, BacTiter-Glo ATP luminescence, 24 h; control for the full effect not named in the record; 0.21% of 360,000 active; Potency, µM (titrated, usually from 92.2 µM), for inactives: top-dose activity change, negative = less growth; AID 651644; active = well fitted falling curve with a large enough effect; inconclusive = small, poorly fitted or top-dose-only effect; inactive = no such curve, though single readings can be large or run the other way;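 also: % is scaled to controls: 0 for no effect and ±100 for the full control effect; nearly all actives have a fitted effect of over 50% in size; the assay follows cell death caused by Vpr and the record does not say whether a fall means rescue or toxicity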
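Fission yeast RE007 carrying one integrated HIV-1 vpr copy, seeded at OD 0.01 in PMG+AL medium with 23 nL pinned compound. Grown 24 h at 30 degrees; viability read by BacTiter-Glo luminescence after 5 min.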
StopGo reporter = FMDV 2A StopGo reporter, luciferase signal | Potency, µM (highest dose often 57.9 µM), without a hit: top-dose signal change, negative = less light | AID 1159524 | 1.2% of 410,000 active | human cells with a luciferase reporter of 2A StopGo recoding; control for the full effect not named in the record; active = well fitted falling curve with a large enough effect; inconclusive = small, poorly fitted or top-dose-only effect; inactive = no such curve, though single readings can be large or run the other way; tested in HEK293T cells; also: % is scaled to controls: 0 for no effect and ±100 for the full control effect; nearly all actives have a fitted effect of over 45% in size; luciferase light after 4 h
SARS PLP yeast = blocks SARS-CoV papain-like protease in a yeast assay. S. cerevisiae expressing SARS-CoV PLpro, growth rescue; control for the full effect not named in the record. 0.19% of 330,000 active. Potency, µM (doses to about 32.9 µM), for the others: at the highest dose activity, positive = growth rescue; also: 0% is about no effect; nearly all actives have a fitted effect of over 55% in size; growth read by luminescence after 48 h
Lassa entry inh = Lassa virus entry inhibition. Potency, µM (series often up to 37.9 µM), for the others: at the highest dose activity change, negative = inhibition, usual class: inhibitors. Lassa virus pseudotype entry inhibition, cell reporter; control for the full effect not named in the record. 1.2% of 300,000 active; active means well fitted inhibition curve with a large enough effect; inconclusive means small, poorly fitted or top-dose-only effect, or effect the other way; inactive means flat fitted curve, though single readings scatter; tested in HEK293 cells; also: % is scaled to controls: 0 for no effect and ±100 for the full control effect; nearly all actives have a fitted effect of over 50% in size; luciferase read-out
Cruzain Triton = blocks cruzain activity in presence of Triton detergent | AID 1478 | purified cruzain, Z-FR-AMC fluorescence, 0.01% Triton | Potency, µM, for inactives: max response, negative = inhibition, usual class: inhibitors | 0.43% of 200,000 active; active = well fitted curve in the direction sought with a large enough effect; inconclusive = small, poorly fitted or top-dose-only effect, or another doubt; inactive = no such curve, though single readings can be large; an effect the other way counts as inactive or inconclusive;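 also: plate controls were neutral wells for no effect and buffer without enzyme for full effect; nearly all actives have a fitted effect of over 40% in size; top concentration of the series not given in the record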
Target sequence (P25779 123-467 limits assumed): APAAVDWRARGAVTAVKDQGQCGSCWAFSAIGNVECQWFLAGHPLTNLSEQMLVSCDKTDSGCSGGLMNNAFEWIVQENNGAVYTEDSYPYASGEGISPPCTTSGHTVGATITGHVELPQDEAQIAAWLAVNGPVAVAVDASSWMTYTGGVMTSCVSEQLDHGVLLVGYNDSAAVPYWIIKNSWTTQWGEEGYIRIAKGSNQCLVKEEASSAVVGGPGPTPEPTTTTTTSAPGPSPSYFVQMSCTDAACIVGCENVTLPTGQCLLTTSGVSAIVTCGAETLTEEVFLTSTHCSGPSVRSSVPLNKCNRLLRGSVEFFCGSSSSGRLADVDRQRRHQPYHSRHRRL
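Purified cruzain (1.5 nM final) was preincubated with compounds for 15 min at room temperature in 100 mM sodium acetate pH 5.5, 5 mM DTT, 0.01% Triton X-100. Reaction started with 2 uM Z-FR-AMC; AMC fluorescence change over 60 s gave activity.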
Marburg entry inh = Marburg virus entry inhibition | Marburg virus pseudotyped entry inhibition, cell reporter; control for the full effect not named in the record; about a third of the inactives were read at about 46 µM | Potency, µM (top dose mostly 37.8 µM), for the others: at the highest dose activity change, negative = inhibition, most hits filed as inhibitors | 1.8% of 300,000 active | AID 540276; active = well fitted inhibition curve with a large enough effect; inconclusive = small, poorly fitted or top-dose-only effect, or effect the other way; inactive = flat fitted curve, though single readings scatter; tested in HEK293 cells; about a fifth of its hits are not listed in these tables; also: % is scaled to controls: 0 for no effect and ±100 for the full control effect; luciferase read-out
NS1 function inh = inhibitors of influenza NS1 protein function. 0.4% of 270,000 active. AID 2326. Potency, µM (top dose mostly 46.1 µM), inactives show at the top dose activity, positive = more growth. S. cerevisiae slowed by influenza A NS1, growth recovery by OD600; also: actives are rising curves; nearly all actives have a fitted effect of over 50% in size
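Growth recovery, yeast-based: influenza A NS1 expressed in S. cerevisiae causes slow growth, and suppressors are detected by OD600. The parent strain without NS1 is used as positive control.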
Cruzain inh noDet = inhibitors of Trypanosoma cruzi cruzain without detergent | 2.3% of 200,000 active | purified cruzain, Z-FR-AMC fluorescence, no detergent | Potency, µM, for the others: max response, negative = inhibition, hits mostly inhibitors | P25779 | AID 1476; active = well fitted curve in the direction sought with a large enough effect; inconclusive = small, poorly fitted or top-dose-only effect, or another doubt; inactive = no such curve, though single readings can be large; an effect the other way counts as inactive or inconclusive;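 also: plate controls were enzyme without inhibitor for no effect and buffer without enzyme for full effect; nearly all actives have a fitted effect of over 40% in size; top concentration of the series not given in the record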
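Detergent-free condition (0.00005% Triton X-100) in acetate buffer pH 5.5 with DTT. 1.5 nM enzyme and compound were pre-mixed 15 min, then 2 uM Z-FR-AMC substrate added; reaction progress from fluorescence change between first and third reads (60 s).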
An asterisk follows results filed as active; ? = inconclusive; nt = no result given; & = joins results of further samples; [ ] = dose if it differs, or a comment. Unless noted, calls follow the shape of the dose curve; as a rule, active means well fitted rising curve with a large enough effect; inconclusive means small, poorly fitted or top-dose-only effect; inactive means no such curve, though single readings can be large or run the other way. Potency is read from the fitted curve at half-maximal effect.

SMILES | RE007 growth inh | StopGo reporter | SARS PLP yeast | Lassa entry inh | Cruzain Triton | Marburg entry inh | NS1 function inh | Cruzain inh noDet
CCc1cc(C(=O)N2CCCC(CCC(=O)N3CCN(c4ccccn4)CC3)C2)no1 (stereo not drawn) | -11.9% | ? | 0.1% | -21.3% | nt | -22.9%[46.1 µM] | -0.8% | nt
Cc1ccnc(-n2c(C)cc(/C=C3\C(=O)NC(=S)N(C)C3=O)c2C)c1 | -13.9% | ? | -5.4% | -0.8% | -4.9% | ? | -12.0% | -0.6%
Cc1ccc(/C=N/NC(=S)Nc2cccc(S(=O)(=O)N(C)C)c2)o1 | 3.9% | ? | 2.3% | nt | nt | nt | 2.6% | nt
O=C(c1ccc2c(Cl)c3c(nc2c1)CCCC3)N1CCN(c2cccc(C(F)(F)F)c2)CC1 | nt | 21.7% | nt | 17.5%[46.1 µM] | 1.7% | 5.1%[46.1 µM] | nt | -1.3%
CC1CC(C)(C)N(C(=O)CN2CCN(C)CC2)c2ccccc21 (stereo not drawn) | 11.9% | -18.0% | 3.8% | nt | nt | nt | ? | nt
CCC(Oc1ccccc1)C(=O)Nc1ccccn1 (stereo not drawn) | -2.9% | 73.4%[activator] | 15.1% | 16.7% | 1.3% | 12.9% | 1.9% | -9.7%
COc1ccc(NC(=O)NCCCN2CCc3ccccc3C2)cc1 | 4.5% | -11.6% | -2.0% | nt | 0.2% | nt | ? | -4.3%
COc1ccccc1N1CCN(C(c2cccs2)C(C)NC(=O)C(=O)N2CCCCC2)CC1 (stereo not drawn) | -16.5% | -9.6% | 0.7% | nt | nt | nt | -8.0% | nt
COc1ccc(NC(=O)CCCc2ccccc2)c(OC)c1 | -1.4% | 43.3%[activator] | -0.6% | nt | nt | nt | -21.7% | nt
Nc1ccc(S(=O)(=O)NC2(C(F)(F)F)NC(=O)N(c3ccccc3F)C2=O)cc1 (stereo not drawn) | -18.4% | 4.1% | -1.2% | nt | nt | -1.8%[46.1 µM] | 3.5% | nt
Cc1cc(C(=O)Nc2ccc(S(=O)(=O)N3CCCC3)cc2)no1 | 0.1% | 0.0% | 0.2% | 18.5% | nt | -15.6% | nt | nt
CCOC(=O)C1CCN(C(=O)Nc2cccc(Cl)c2)CC1 | 11.0% | 3.3% | -24.5% | -11.3% | -6.2% | ? | 2.1% | 4.1%
Cc1[nH]n(-c2ccccc2)c(=O)c1/C=C1\C=NN=C1c1ccccc1 | -8.1% | 10.6% | -2.0% | 29.9% | nt | -9.5%[14.2 µM] | 0.7% | nt
Cc1ccc(OCCSc2nc3ccccc3n2CC(=O)N2CCCCC2)c(C)c1 | nt | 0.0% | nt | 23.7%[46.1 µM] | -3.6% | 2.0%[46.1 µM] | nt | 3.4%
COc1ccc2cc(Br)ccc2c1CC(=O)NC1CC(C)(C)NC(C)(C)C1 | -5.0% | 0.0% | 10.3% | ? | -5.9% | 18.3µM* | -8.1% | -2.6%
Cc1cccnc1CCNCc1c(C(=O)N2C[C@@H](C)O[C@@H](C)C2)nc2ccc(Cl)cn12 | 2.3% | -5.4% | 0.2% | 8.7% | nt | ? | 4.9% | nt
O=C(NC1CCCN(Cc2ccc(Cl)cc2)C1)c1cccc(F)c1 (stereo not drawn) | -14.4% | -21.5% | ? | nt | nt | nt | 11.4% | nt
CCCNC(=O)c1cc(Cl)c(NC(=O)C2=CSCCO2)cc1OC | -7.6% | 9.2% | -3.1% | nt | nt | nt | 4.8% | nt
COc1ccc(CN2CCN(CCCc3ccccc3)C(CCO)C2)c(OC)c1 (stereo not drawn) | -3.4% | -21.5% | 1.8% | nt | nt | nt | 26.8% | nt
CC(=O)Cn1c(N2CCC(Cc3ccccc3)CC2)nc2c1c(=O)[nH]c(=O)n2C | 5.4% | ? | -5.1% | -22.4% | 2.6% | 5.2%[46.1 µM] | 2.0% | 6.4%
CSc1ccccc1NC(=O)c1cc2ncc(Br)cn2n1 | -0.1% | 8.4% | 0.2% | nt | nt | nt | 0.4% | nt
COC(=O)c1ccc(Cl)c(NC(=O)CN(c2ccc(OC)c(OC)c2)S(C)(=O)=O)c1 | -23.4% | -16.4% | 16.8% | -14.2% | -1.4% | 0.9% | -9.7% | 6.1%
O=C(NCc1ccccc1)c1ccc2ccccc2n1 | 26.2% | 17.7% | -10.9% | ? | nt | -1.3%[46.1 µM] | -14.2% | nt
CCN(CC)C(=O)CN1C(=O)c2cccc3cccc1c23 | 3.1% | -3.1% | -0.7% | 5.8% | nt | 1.8% | ? | nt
CCN(C(=O)c1ccccc1F)c1nc(-c2ccc(OC)cc2)cs1 | -9.9% | 67.0%[activator] | -5.8% | nt | nt | nt | 16.0% | nt
Other results
SMILES | RE007 growth inh | StopGo reporter | SARS PLP yeast | Lassa entry inh | Cruzain Triton | Marburg entry inh | NS1 function inh | Cruzain inh noDet
CC(C)(C)c1nnc(NC(=O)Nc2ccc(Cl)cc2)s1 | -6.2% | 23.8% | 0.4% | -13.6% | nt | -3.5%[46.1 µM] | 0.5% | nt
COC(=O)C1=C(C)N(CC2CC2)C(=NCCN2CCOCC2)N[C@H]1c1ccccc1 | 4.5% | -15.8% | -4.4%&-17.3% | nt | nt | nt | 5.6%&-5.0% | nt
O=C(NCCc1ccccn1)c1nc(Cn2cc([N+](=O)[O-])cn2)no1 | 18.4% | 0.6% | 1.3% | nt | nt | 3.3%[46.1 µM] | 12.2% | nt
O=C(NCCCn1ccnc1)c1cnn2c1NC(c1ccccc1)CC2C(F)(F)F (stereo not drawn) | 12.1% | nt | 0.5% | -1.6% | -1.7% | -17.1% | -3.5% | 5.4%
Cc1ccc(-n2[nH]c(C)c(/C=N/NC(=O)c3cccc([N+](=O)[O-])c3)c2=O)cc1C | nt | nt | 1.26µM* | 1.8% | 2.2% | -1.6% | 11.1% | ?
COc1ccc(C)cc1Nc1nc(-c2ccccc2O)nc2ccccc12 | 6.0% | -5.5% | 0.3% | nt | nt | nt | 4.1% | nt
CCn1c(=O)cc(OCC(=O)N2CCC3(CC2)OCCO3)c2ccccc21 | 0.1% | 0.0% | -0.8% | 2.7% | -1.6% | -0.4% | 0.6% | 0.6%
O=C(COC(=O)CC1CC2CCC1C2)NC(=O)NC1CCCC1 (stereo not drawn) | 0.3% | -10.2% | 0.2% | ? | nt | 10.5%[46.1 µM] | -0.7% | nt
CCOc1ccc(NC(=O)COC(=O)c2ncc(Cl)c(Cl)c2Cl)cc1 | 6.0% | -11.4% | 12.3% | 1.0% | 2.6% | 22.7% | 0.4% | -4.5%
CC(Cc1ccccc1)[n+]1cc(/N=C(\[O-])N(C)C)on1 (stereo not drawn) | -7.0% | 21.2% | -1.9% | 19.6% | -1.1% | 12.3% | -3.8% | -7.1%
O=C(O)c1cccc(Nc2ncnc3ccc(Br)cc23)c1 | 11.5% | -23.2%&3.8% | 0.8% | 14.0% | 3.6% | 0.7%&21.3%[46.1 µM] | -0.3% | -15.1%
Cc1ccc(NS(=O)(=O)c2c(F)cc(F)c(Cl)c2F)cc1S(=O)(=O)N1CCOCC1 | 5.6% | 66.1%[activator] | -2.1% | 12.4% | nt | -5.4% | nt | nt
CCN1CCN(C(=S)Nc2ccc(Cl)cc2)CC1 | 11.5% | 49.6%[activator] | -1.3% | 4.7% | 3.9% | 3.6% | 4.2% | -4.8%
CC(=O)c1ccc(S(=O)(=O)N2CCN(c3ccccc3F)CC2)cc1 | 10.6% | -28.5% | 0.5% | -22.2% | nt | 1.8% | -6.3% | nt
O=C(Nc1ccc(Cl)cc1)N[C@@H]1c2c(ccc3ccccc23)OC[C@@H]1CO | -20.9% | 5.5% | -0.5% | -17.9% | -3.8% | ? | -1.2% | -13.3%
CCCN(CC(=O)Nc1ccc(F)c(F)c1F)C(=O)c1ccc2c(c1)NC(=O)CS2 | -0.6% | 0.0% | 0.6% | -19.7% | nt | -23.7% | nt | nt
CN(Cc1ccccc1)S(=O)(=O)c1ccc(Cl)c(C(=O)NCCCN2CCOCC2)c1 | 3.0% | -7.1% | 1.5% | 3.3% | nt | -17.2% | nt | nt
Cc1ccc2c(c1)c1c(c(=O)n(-c3cccc(Cl)c3)c(=O)n1CC(=O)c1ccc(Cl)cc1)n2C | nt | -24.0% | nt | 19.5%[46.1 µM] | 6.6% | 15.4%[46.1 µM] | nt | 0.6%
CCOc1ccc(NC(=O)C(=O)NCCN2CCN(S(=O)(=O)c3ccccc3)CC2)cc1 | -2.2% | -19.2% | -0.1% | ? | nt | 9.3%[46.1 µM] | 4.1% | nt
N#Cc1cccc(NC(=S)Nc2ccccc2)c1 | -4.0% | 9.8% | -0.3% | 2.6% | 0.8% | ? | -0.5% | -7.1%
COc1cccc(CNC(=O)c2cnc(N3CCCC3)nc2C)c1 | nt | -4.0% | nt | -2.0%[46.1 µM] | -0.4% | nt | nt | -3.5%
CC(C)(C)n1cnc2cc(NCc3cccs3)ccc21 | -7.6% | 9.0% | 0.1% | 6.2%[46.1 µM] | nt | ? | nt | nt
Cc1sc2c(c1C)c(=O)n(-c1cccc(C(F)(F)F)c1)c(=O)n2Cc1ccccc1C#N | nt | -22.7% | nt | 6.5%[46.1 µM] | 5.3% | ? | nt | 19.3%
COc1ccc(C(=O)N2CCC(C(=O)c3ccc(F)cc3)CC2)cc1 | -0.5% | ? | ? | -19.3% | -4.2% | ? | -24.3% | 10.4%
COc1ccc2c(=O)c(-c3cnn(-c4ccccc4)c3)c(C)oc2c1 | 4.4% | nt | 1.6% | 3.9% | -0.9% | -29.1% | -58.8% | -4.1%
More results:
SMILES | RE007 growth inh | StopGo reporter | SARS PLP yeast | Lassa entry inh | Cruzain Triton | Marburg entry inh | NS1 function inh | Cruzain inh noDet
Cc1c(NC(=S)N/N=C/C=C/c2ccccc2)c(=O)n(-c2ccccc2)n1C | 22.9% | -12.3% | 0.3% | 6.1%[46.1 µM] | nt | -2.2%[46.1 µM] | 6.3% | nt
COCCOC(=O)C1=C(C)NC2(O)c3ccccc3C(=O)C12O (stereo not drawn) | 0.2% | -21.2% | -3.4% | -0.5% | nt | ? | nt | nt
O=C(COC(=O)C1CC1)NC(=O)NCc1ccccc1 | 14.4% | -4.1% | 1.9% | 7.1% | nt | 4.5%[46.1 µM] | 1.8% | nt
O=C(NNC1=C(C(=O)C(F)(F)F)CCC1)c1cccc(Cl)c1 | 5.8% | -31.1% | -23.7% | -22.2% | 2.2% | -23.1% | -148.3% | -5.2%
COc1ccc(CN2CCc3ccccc3C2)cc1Br | -15.0% | -12.2% | -0.5% | nt | nt | nt | -16.4% | nt
CCCCCC(=O)Nc1cc(S(=O)(=O)N2CCOCC2)ccc1N1CCN(C)CC1 | -10.2% | -19.6% | -13.1% | 1.7%[46.1 µM] | nt | 3.8%[46.1 µM] | -12.4% | nt

Screening results: PubChem, National Center for Advancing Translational Sciences (NCATS)
